Screening results (PubChem)
rRNA inh HTS = reduced GFP signal of wild-type E. coli, primary screen, bacterial rRNA inhibitor project, GFP/RFP fluorescence, OD600, single point. GFP signal change (wild-type ribosome), % (test concentration not listed). E. coli WT GFP vs humanized-ribosome RFP mutants, 24 h; stronger effect = lower value; DMSO median 0, no signal -100. AID 720706, 2013. 350,000 tested, 1.6% active;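 active = significant combined selectivity score with lowered wild-type GFP, culture density cut under 30%, mutant RFP and density less affected; inactive = any of these conditions unmet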; also: one replicate is shown; some compounds called inactive have numbers as strong as hits
FGF22 binding = binders of human FGF22 protein, primary screen, FGF22 synaptogenesis inhibitor project, biophysical, thermal shift, single point; recombinant FGF22 thermal shift, SYPRO orange fluorescence; percent of sucrose octasulfate shift, DMSO zero; AID 651658, 2012; Fibroblast growth factor 22 (Homo sapiens), Q9HCT0; calls only at 9.99 µM; 340,000 tested, 1.5% active;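 active = melting point raised past a set limit in the mean and every replicate; inconclusive = no clear call; three in four hits are not shown here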
Target sequence (Q9HCT0 whole entry, looked up): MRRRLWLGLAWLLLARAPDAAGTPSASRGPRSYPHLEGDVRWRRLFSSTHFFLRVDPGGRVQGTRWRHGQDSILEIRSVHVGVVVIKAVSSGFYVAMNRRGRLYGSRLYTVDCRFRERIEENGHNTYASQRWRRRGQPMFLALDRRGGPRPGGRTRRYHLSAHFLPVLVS
Ecoli growth = E. coli growth inhibition, primary screen, OD600. 330,000 tested, 0.21% active. OD600 absorbance (test concentration not listed). Escherichia coli growth, 23 h; stronger effect = lower value;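 active = OD600 absorbance below the run mean of sample wells minus 3.6 SD, in any replicate, cut at about 0.56 in these data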;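 also: stock transfer was 300 nL into about 60 µL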
Beta apoptosis = inhibitors of cytokine-induced beta cell apoptosis, primary screen, luminescence | INS-1E cytokine-induced death, ATP luminescence, 48 h; percent of positive-control rescue, neutral wells zero | protection from apoptosis, % (concentration not given with the values) | 300,000 tested, 0.8% active;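 active = all replicates at 75% or more, or half of them and the mean; inconclusive = half reach 75% but not the mean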;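 also: 0% = cytokine-treated negative control wells and 100% = positive control rescue; higher means more ATP so stronger rescue from cytokine killing; wells of about 40 µL received 100 nL stock; the first replicate is given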
UCH37 inh = inhibitors of human UCH37 deubiquitinase, primary screen, biochemical, Ub-AMC cleavage, fluorescence | Ubiquitin carboxyl-terminal hydrolase isozyme L5 (Homo sapiens), Q9Y5K5 | inhibition, % (concentration not given with the values) | purified proteasome/UCH37 | AID 588478, 2011 | 330,000 tested, 0.33% active;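 active = mean of two replicates above 20%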;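 also: 0% = compound-free wells with enzyme and 100% = wells lacking proteasome; stock transfer was 100 nL into about 20 µL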
Target sequence (Q9Y5K5 whole entry, looked up): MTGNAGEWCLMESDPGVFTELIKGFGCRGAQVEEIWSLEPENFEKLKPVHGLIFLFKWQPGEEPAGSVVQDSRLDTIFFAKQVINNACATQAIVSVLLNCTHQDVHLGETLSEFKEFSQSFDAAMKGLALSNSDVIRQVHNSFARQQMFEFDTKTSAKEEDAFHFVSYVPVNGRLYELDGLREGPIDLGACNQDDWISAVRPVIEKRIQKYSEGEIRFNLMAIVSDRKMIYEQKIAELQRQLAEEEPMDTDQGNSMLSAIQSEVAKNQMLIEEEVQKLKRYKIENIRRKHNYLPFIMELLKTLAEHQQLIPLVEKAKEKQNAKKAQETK
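Material: Human UCH37 enzyme supplied as purified proteasome complex | Schedule: 30 min preincubation with enzyme, 25 min cleavage at room temperature | Detection: AMC fluorescence 355/460 nm | Measure: % inhibition of Ub-AMC cleavage fluorescence | Controls: Wells without proteasome as full block, compound-free enzyme plus substrate as uninhibited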
Bfl-1 A1 inh = caspase 3/7 activation in MEF A1-2A-BIM cells, primary screen, A1 inhibitor project, cell-based, luminescence, HTS. 330,000 tested, 0.066% active. caspase activation, % (concentration not given with the values). AID 2462, 2010. Caspase-Glo 3/7 luminescence, 3 h; percent of clofoctol response, vehicle zero;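 active = over half of replicate activation scores above 10%, or exactly half above 10 with the replicate mean above 10; inconclusive = replicate mean below 10 yet half the replicates above 10; inactive = over half of replicates below 10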;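 also: wells of about 30 µL received 50 nL stock; many hits fall short of the cut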
AF4-AF9 inh = inhibitors of AF4 peptide binding to AF9, primary screen, biochemical, AlphaScreen, biotin-AF4 peptide, FLAG-AF9, single point. Protein AF-9 (Homo sapiens), P42568. 350,000 tested, 0.47% active. AID 651704, 2012. inhibition, % at 10 µM;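 active = every replicate reaching a set inhibition limit, whatever the replicate mean, cut at about 25% in these data; inconclusive = mean inhibition reaches that limit but some replicates miss it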;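 also: 0% = plate neutral control median and 100% = total signal loss; the record names both 10 and 1 µM as test concentration; the first replicate is given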
Target sequence (P42568 whole entry, looked up): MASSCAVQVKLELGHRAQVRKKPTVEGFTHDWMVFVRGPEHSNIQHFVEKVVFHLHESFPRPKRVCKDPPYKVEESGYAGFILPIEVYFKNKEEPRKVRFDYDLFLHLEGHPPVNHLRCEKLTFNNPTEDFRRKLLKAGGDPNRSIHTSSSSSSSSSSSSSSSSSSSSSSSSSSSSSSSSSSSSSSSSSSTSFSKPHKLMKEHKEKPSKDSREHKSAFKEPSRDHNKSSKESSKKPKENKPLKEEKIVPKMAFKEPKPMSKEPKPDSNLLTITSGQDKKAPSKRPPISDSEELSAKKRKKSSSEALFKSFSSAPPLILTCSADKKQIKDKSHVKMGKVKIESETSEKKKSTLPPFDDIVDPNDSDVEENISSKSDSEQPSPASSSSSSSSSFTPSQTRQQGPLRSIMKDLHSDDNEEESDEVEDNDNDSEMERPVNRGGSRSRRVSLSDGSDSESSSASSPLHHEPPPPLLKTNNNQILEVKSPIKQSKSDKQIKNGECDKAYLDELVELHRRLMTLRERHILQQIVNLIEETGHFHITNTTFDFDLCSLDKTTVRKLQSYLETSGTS
T cruzi inh = inhibitors of intracellular T. cruzi growth, primary screen, luminescence, NIH3T3 host cells | inhibition, % (concentration not given with the values) | T. cruzi beta-gal in NIH3T3, 90 h | 300,000 tested, 1.4% active;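 active = mean inhibition across valid replicates above about 55%, limit read from the data; inconclusive = mean below that limit but half or more replicates reach it; inactive = mean below it, under half of replicates reach it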;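 also: signal also drops with host cell toxicity which is not excluded here; 0% = plate median of DMSO wells and 100% = zero luminescence signal; higher percent means less beta-gal luminescence so fewer parasites; stock transfer was 50 nL into about 50 µL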
rRNA inh HTS OD600 = further read-out of rRNA inh HTS, marked with its call; OD600 change, %; measured here: OD600 growth;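 optical density of the mix in the first replicate; 0 = DMSO median and -100 = no signal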
rRNA inh HTS RFP = second read-out of rRNA inh HTS, no call of its own (marks repeat the call); RFP signal change, %; measured here: RFP humanized mutant strains;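 first replicate; 0 = DMSO median and -100 = no signal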
* marks the source's active call; other numbers are inactive results; i = inactive; ? = inconclusive; · = not tested or not shown; + = active, no number; & = joins results of further samples. Not all compounds are listed; the hit share may differ from the screen's.

SMILES	rRNA inh HTS	rRNA inh HTS OD600	rRNA inh HTS RFP	FGF22 binding	Ecoli growth	Beta apoptosis	UCH37 inh	Bfl-1 A1 inh	AF4-AF9 inh	T cruzi inh
CC(C(=O)Nc1ccc(C#N)cc1)N(C)CC(=O)N(C)c1c(N)n(Cc2ccccc2)c(=O)[nH]c1=O (stereo not given)	3	5	-0.3	i	0.69	-1	4.6	0.2	-0.9	·
O=C(CSc1ncccn1)N1CCCC1	4	9	-4.0	i	0.69	1	3.7	-0.4	-2.1	4
COc1ccc(C2C=C(C)Nc3nc4ccccc4n32)cc1 (stereo not given)	-16	-13	-2.6	i	0.7	-6	-43	-0.6	1.7	0
COc1ccc(-c2nc(N)n(C(=O)Cc3ccccc3)n2)cc1	·	·	·	·	0.72	-24	3.2	0.0	·	-7
CCOC(=O)c1c(C)[nH]c(C(=O)OCC(=O)Nc2cc(C)c(Cl)cc2OC)c1C	·	·	·	·	0.72	10	1.3	-0.1	·	-15
COc1cc2cc(Oc3ccc4ccc(=O)oc4c3)c(=O)oc2cc1OC(C)=O	·	·	·	i	0.7	-4	-7.8	0.3	-1.7	-7
COc1ccccc1OC(C)C(=O)Nc1ccc(S(=O)(=O)Nc2nccs2)cc1 (stereo not given)	-5	-11	-0.1	i	0.63	0	4.4	1.1	-6.8	2
CCCC(=O)NC(=S)Nc1ccc(N2CCN(C(=O)c3cccs3)CC2)cc1	-11	-8	6.6	i	0.73	16	2.3	-0.4	0.0	4
CCCCNC(=O)/C(C#N)=C/c1cccnc1	20	14	5.5	i	0.69	-12	3.1	-0.3	-1.2	-14
O=C(/C=C/c1ccc(Br)cc1)NC(=S)NNC(=O)c1ccco1	·	·	·	·	0.72	2	7.0	0.6	·	-24
COc1ccc(C(=O)NCc2ccc(S(N)(=O)=O)cc2)cc1[N+](=O)[O-]	·	·	·	·	·	1	·	1.6	-1.0	-8
O=C(NNC(=O)c1ccccc1Cl)c1cc2cc(OC(F)(F)F)ccc2[nH]1	-7	14	0.4	i	0.66	·	-0.6	-0.7	-3.4	-7
CCOc1ccc(CCNS(=O)(=O)c2cc3c(cc2C)NC(=O)CO3)cc1OCC	-2	-11	1.3	i	0.78	-2	5.2	-0.4	9.3	8
Cc1ccc(-c2cc(C(F)F)nc(N3CCOCC3)n2)cc1	15	11	2.2	i	0.64	0	-12	0.3	-6.4	22
Cc1ccnc(NC(NC(=O)C(C)C)(C(F)(F)F)C(F)(F)F)c1	1	17	11	i	0.65	-13	3.3	-0.1	-9.3	7
CSc1ccc(C(=O)N2CCC(CCC(=O)NCc3ccc(F)cc3)CC2)cc1	-2	1	0.7	i	0.68	·	4.1	·	-5.7	-7
CN(Cc1c(C(=O)N/N=C/c2ccc(O)cc2)nnn1-c1nonc1N)c1ccccc1	-27*	-14*	-2.4*	+	·	4	·	-0.8	0.5	2
CN(c1ccc(F)cc1)S(=O)(=O)c1ccc(Cl)c(C(=O)NCc2ccco2)c1	0	-25	-6.8	i	0.68	-1	-0.4	0.0	3.5	·
COc1ccc2cnn(-c3ccccc3)c(=O)c2c1OC	·	·	·	·	0.73	2	2.4	0.4	·	-2
Nc1nc2cc3ccccc3cc2[nH]c1=O	-1	1	30	i	0.67	-6	-17	-0.1	4.0	-10
O=C(Cn1c(=O)c2cccn2c2ccccc21)NCCc1ccccc1	11	11	0.6	i	0.71	1	-0.3	0.1	-9.0	1
COC(=O)C1=C(C(=O)c2ccc(C)cc2)C(c2ccccc2)n2nnnc2N1 (stereo not given)	·	·	·	·	0.69	-1	4.9	-0.1	·	8
Cc1nc(CCNC(=O)C2CCC(=O)N(CCc3cccc(F)c3)C2)sc1C (stereo not given)	5	-3	-0.4	i	0.69	3	-0.2	-0.1	0.2	-15
CC(C)c1nc(N2CCN(C(=O)c3ccco3)CC2)c(C#N)c2c1COC(C)(C)C2	-49	-75	-17	i	0.66	·	-96	-0.5	4.2	18
Cc1ccc2oc(=O)c3cnn(CC(=O)NCCc4ccsc4)c3c2c1	1	12	3.6	i	0.78	-2	2.0	0.1	-12	-1
COc1cccc(CN(C(=O)COc2ccccc2[N+](=O)[O-])C2CCS(=O)(=O)C2)c1 (stereo not given)	·	·	·	·	0.65	-3	3.4	-0.3	·	-13
CCOC(=O)N1CCN(CC(=O)Nc2c(C(=O)OC)[nH]c3cccc(Cl)c23)CC1	-15*	-11*	6.4*	i	0.7	2	-1.3	0.8	-5.3	-17
CCOC(=O)C1(Cc2cccc(OC)c2)CCCN(C(=O)c2ccccc2C)C1 (stereo not given)	-6	-8	8.5	i	0.73	0	0.8	-0.5	-5.9	-3
CN=c1oc2ccc(Cl)cc2cc1C(N)=O	·	·	·	·	0.7	-1	4.0	-0.5	·	-6
CCOC(=O)[C@@H]1[C@H]2COc3ccc(Br)cc3[C@H]2N2C(=O)N(c3cccc(Cl)c3)C(=O)[C@]12C	6	16	-1.5	i	·	-1	2.3	0.0	-34	28
COc1ccc2c(c1)c1nnc(SC)nc1n2C	·	·	·	·	0.74	9	4.4	-0.2	·	35
Cc1cc(N=CC2=C(O)CCCC2=O)no1	8	-3	-0.6	·	0.6	-1	4.9	-0.1	·	0
O=C1C=C(c2ccc3ccccc3c2)C[C@@H](c2ccc(F)cc2)C1	-1	-5	-11	i	·	3	-0.7	1.9	2.8	·
CCOC(=O)N1CCC(N2C(=O)c3ccccc3C2Nc2cccnc2)CC1 (stereo not given)	3	7	-4.6	i	0.77	-9	1.3	-0.6	9.3	13
O=C(COC(=O)COc1ccc(Cl)cc1)NCc1cccs1	·	·	·	·	0.69	-2	3.2	0.5	·	4
Cc1ccsc1C(=O)NCCc1c[nH]c2ccccc12	-6	-9	2.8	i	0.71	·	1.9	-3.4	0.2	0
Cc1ccccc1-c1nc(-c2ccc(NC(=O)c3cccs3)cc2)no1	·	·	·	·	0.7	15	-1.2	-5.3	·	25
Cc1ccc(C(=O)Nc2cccc(C(F)(F)F)c2)cc1NC(=O)c1ccno1	-18&-10	-12&-8	-5.5&-2.4	i	0.68	10	2.6	0.1	-2.2&1.7	-33
CCCNS(=O)(=O)c1ccc(OCC(=O)N2CCN(c3ccccc3)CC2)cc1	2	6	-4.8	i	0.71	1	1.2	-0.7	-1.3	13
Brc1ccccc1-c1ccccc1	3	-3	-0.7	i	0.67	-1	4.8	-0.1	·	·
O=C1c2ccccc2C(Nc2ccccc2)N1Cc1ccc2c(c1)OCO2 (stereo not given)	-21	-21	1.3	i	0.66	8	3.9	0.0	3.2	-1
COc1ncccc1-c1nnn(-c2ccccc2Br)n1	-14	-20	-4.0	i	0.64	-9	0.5	0.0	-3.2	-17
CN(C)N1C(=O)CC(N2CCCC2)C1=O (stereo not given)	18	14	4.3	i	0.67	·	-1.9	0.9	-1.7	-10
CC(=O)c1cccc(NS(=O)(=O)c2csc(C(N)=O)c2)c1	12	11	1.1	i	0.69	-11	2.8	-0.2	0.9	-4
COc1ccccc1Oc1nc([N+](=O)[O-])nn1CC(N)=O	15	-16	-1.8	i	0.71	8	3.3	0.1	-2.6	51
Cc1ccc(Cn2nc(C)c(NC(=O)CSc3n[nH]c(C)c3[N+](=O)[O-])c2C)cc1	·	·	·	·	0.64	2	3.0	-0.6	·	-26
CCCC(O)(CCC)C(=O)NNc1ccccc1	·	·	·	·	0.78	-3	3.7	-0.3	·	2
O=C(Nc1ccccc1)/C(=C\c1ccncc1)NC(=O)c1ccccc1	·	·	·	·	0.7	0	0.1	0.5	·	-1
CN(C)CCNC(=O)CCCNC(=O)Cn1cnc2sc3c(c2c1=O)CCCC3	·	·	·	·	0.72	-4	1.2	1.3	·	-8
O=C(Nc1ncc2c(n1)CC(c1ccccc1)CC2=O)c1ccco1 (stereo not given)	4	5	-0.5	i	0.67	-2	0.1	0.3	4.9	-2
CCOC(=O)CN(c1ccccn1)S(=O)(=O)c1ccc(OC)cc1	13	12	-1.2	·	0.69	·	-38	0.2	-1.6	2
NS(=O)(=O)c1ccc(CNC(=O)Cn2nc(C(F)F)cc2C(F)F)cc1	4	1	-0.3	i	0.7	2	2.8	0.1	1.8	·
CCc1ccccc1-n1cnc2cc(C(=O)O)ccc21	·	·	·	·	0.71	0	0.5	-0.2	·	-21
CN(CC(=O)NC(c1ccccc1)c1ccccc1)Cc1nc2ccccc2c(=O)[nH]1	·	·	·	·	0.72	-1	-5.0	0.2	·	7
C=C1c2cc(CC)ccc2NC(=O)N1c1ccc(C)cc1	-4	-2	-2.0	i	0.73	-7	1.7	0.7	-3.3	-33
CCOc1ccc(N2C(=O)CC(Cc3ccc(Br)cc3)C2=O)cc1 (stereo not given)	6	4	0.1	i	0.67	·	3.2	0.1	-3.6	-7
CCOCCc1nnc(NC(=O)c2cc(OC)c(OC)cc2[N+](=O)[O-])s1	6	-7	-0.5	i	0.7	-1	5.8	0.5	-3.2	-5
CN(C)CCSc1nc2cc(S(=O)(=O)N3CCCCC3)ccc2o1	0	0	-0.1	i	0.66	-7	-1.2	-0.8	1.2	·
CCc1ccc2ncc(C(=O)c3ccccc3)c(N3CCOCC3)c2c1	·	·	·	·	0.76	-10	3.4	0.3	·	-2
CCCCCn1c(=O)[nH]c2cc(C(=O)NCc3ccc4c(c3)OCO4)ccc2c1=O	·	·	·	·	0.74	2	-33	-0.4	·	-3

Remaining list, next part
SMILES	rRNA inh HTS	rRNA inh HTS OD600	rRNA inh HTS RFP	FGF22 binding	Ecoli growth	Beta apoptosis	UCH37 inh	Bfl-1 A1 inh	AF4-AF9 inh	T cruzi inh
Cc1cccc(OCC(=O)N(Cc2ccc(C)o2)C2CCS(=O)(=O)C2)c1 (stereo not given)	4	9	-2.1	i	0.66	-8	0.5	0.8	1.0	-4
COc1ccc(S(=O)(=O)n2nc(OC(=O)c3c(-c4ccccc4Cl)noc3C)cc2N)cc1	·	·	·	·	0.72	0	0.8	0.4	·	2
Cn1nnnc1NCc1cccc(Cl)c1Cl	-1	0	-0.4	i	0.66	-6	5.3	?	1.5	9
Cc1cc(O)cc(O)c1C(=O)Cc1ccccc1	-5	9	2.5	i	0.65	2	4.8	-1.3	-10	1
